# KCNQ2 pot = potentiators of rat KCNQ2 potassium channel; Potassium voltage-gated channel subfamily KQT member 2 (Rattus norvegicus), O88943; CHO-K1 KCNQ2, FluxOR thallium flux fluorescence; stronger effect = higher value; B-score at 10 µM; hit rate 0.54% among 310,000;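 active = fluorescence ratio B-score at least 3 SD of library B-scores, with initial fluorescence B-score within 3 SD, cut at about 5.3 in these data; same plate scores as AID 2156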;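 also: B-score of peak minus minimum over baseline fluorescence ratio after K+ and Tl+ stimulus; positive B-score means potentiation of KCNQ2 with more thallium influx and brighter signal; only the inactives scoring about 0 or higher are listed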
# Target sequence (O88943 whole entry, looked up): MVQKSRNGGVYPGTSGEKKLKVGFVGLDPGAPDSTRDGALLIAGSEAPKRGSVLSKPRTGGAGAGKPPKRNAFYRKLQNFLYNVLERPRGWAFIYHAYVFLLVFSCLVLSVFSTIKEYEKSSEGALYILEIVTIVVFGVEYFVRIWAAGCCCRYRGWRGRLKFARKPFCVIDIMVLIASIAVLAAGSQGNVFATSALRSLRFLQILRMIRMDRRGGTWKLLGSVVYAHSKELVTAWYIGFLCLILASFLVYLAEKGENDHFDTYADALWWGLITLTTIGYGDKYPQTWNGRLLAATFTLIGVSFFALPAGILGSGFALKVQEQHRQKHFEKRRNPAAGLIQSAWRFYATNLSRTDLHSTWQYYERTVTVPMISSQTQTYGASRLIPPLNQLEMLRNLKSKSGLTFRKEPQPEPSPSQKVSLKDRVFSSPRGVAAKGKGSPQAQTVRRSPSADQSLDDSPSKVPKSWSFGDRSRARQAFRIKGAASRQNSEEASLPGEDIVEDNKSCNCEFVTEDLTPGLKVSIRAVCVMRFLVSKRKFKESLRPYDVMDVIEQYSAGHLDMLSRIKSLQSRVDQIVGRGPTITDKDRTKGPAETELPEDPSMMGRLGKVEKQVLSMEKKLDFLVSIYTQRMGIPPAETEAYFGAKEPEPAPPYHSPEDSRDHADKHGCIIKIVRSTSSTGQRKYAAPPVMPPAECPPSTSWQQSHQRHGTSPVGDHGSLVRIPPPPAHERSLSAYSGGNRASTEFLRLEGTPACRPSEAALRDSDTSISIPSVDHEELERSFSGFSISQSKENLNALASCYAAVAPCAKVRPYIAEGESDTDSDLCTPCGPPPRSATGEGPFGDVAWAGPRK
# KCNQ2 pot baseline = further read-out of KCNQ2 pot, marked with its call; B-score; compound at 10 µM; measured here: initial fluorescence intensity artifact check;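 brightness before thallium and not channel activity; 0 = typical well and far values either way flag optical interference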
# * hit, by the source's call. The list is partial; the hit share may differ from the screen's.
SMILES,KCNQ2 pot,KCNQ2 pot baseline
O=C(CCC1CCCN(C(=O)c2ccc3[nH]ccc3c2)C1)N1CCN(c2ccccn2)CC1 (configuration not stated),0.18,-0.08
COc1ccc(C(=O)N/C(=C\c2ccc([N+](=O)[O-])cc2)C(=O)NC(CCSC)C(=O)O)cc1 (configuration not stated),0.79,-0.04
O=C(c1ccc(CNS(=O)(=O)c2cccc(C(F)(F)F)c2)cc1)N1CCOCC1,0.78,0.05
CC(C)(C)NC(=O)NC(=O)CN1c2cccc3cccc(c23)S1(=O)=O,1.5,0.53
O=C(CCS(=O)(=O)c1cc(Br)cc2c1N(C(=O)C1CC1)CC2)NCC1CCCO1 (configuration not stated),0.33,-0.22
CC(C)(C)c1ccc(-c2nnc(SCC(=O)NC3CCS(=O)(=O)C3)n2N)cc1 (configuration not stated),1.3,-1.2
CCCOC(=O)C1=C(C)NC2=C(C(=O)CCC2)C1c1cccs1 (configuration not stated),0.12,-0.06
CCNc1nc(N)nc(Oc2ccc(OCC)nn2)n1,1.2,-1.5
COc1ccc(NC(=O)C2CCN(C(=O)c3ccccc3)CC2)cc1OC,1.5,-0.12
COc1cnc(SCCC(F)=C(F)F)[nH]c1=O,0.96,1.3
Cc1cc(Cl)ccc1OCCCC(=O)N/N=C/c1cccc([N+](=O)[O-])c1,1.2,0.15
COc1cc(OC)c(N(C)S(=O)(=O)c2cccc(C(=O)NC3=NCCS3)c2)cc1Cl,0.48,-0.05
COc1cc(/C=C/c2nc3ccccc3c(=O)[nH]2)cc(Cl)c1O,0.42,2.2
COC(=O)c1ccc(/C=N\NC(=O)CC(=O)NCCc2ccccc2)cc1,0.2,-0.9
CCCOC(=O)c1ccc(O)c(OC)c1,1.3,-1.4
COc1cc(C)nc(Oc2ccc(OCCOc3ccccc3)nn2)n1,1.2,0.05
COc1ccc(Cn2c(C)c(C)c(C#N)c2NC(=O)Nc2cccc(C)c2)cc1,0.32,-0.83
Cc1ccccc1-n1c(-c2csc(C)c2C)n[nH]c1=S,0.92,-1.1
Cc1cccc(N2CCN(c3ccc(C(N)=O)cc3[N+](=O)[O-])CC2)c1C,1.8,-0.67
CC(=O)Nc1cc(NC(C)=O)c(CC(C)C)s1,0.44,-0.9
COc1ccc(/C=C/C(=O)OCC(=O)Nc2ccc(S(N)(=O)=O)cc2)cc1OC,0.07,-0.77
CSCCC(NC(=O)C12CC3CC(CC(C3)C1)C2)C(=O)OCC(=O)c1ccc(C)cc1 (configuration not stated),1.2,-0.88
c1ccc(-n2ncc3c(NCC4CCCO4)ncnc32)cc1 (configuration not stated),0.34,-0.32
Cc1[nH]c2ccccc2c1/C=N/NC(=O)c1cc(-c2ccccc2)n[nH]1,0.99,0.17
COc1ccc(NC(=O)NC2CCCc3ccccc32)cc1OC (configuration not stated),1.5,0.66
Cc1ccc(Nc2cc(C)nc(-c3ccccc3)n2)cc1,0.08,1.2
CCOC(=O)C1CCN(CC(O)COC(CC)c2ccccc2)CC1 (configuration not stated),0.03,0
CCN(Cc1ccccc1)S(=O)(=O)c1ccc(S(=O)(=O)N2CCN(CCC#N)CC2)cc1,0.12,1.2
COc1ccc(S(=O)(=O)c2c(O)c3ccc(C(=O)Nc4ccccc4F)cc3[nH]c2=O)cc1,0.16,0.17
COCCN(C(=O)CCC(=O)Nc1ccccn1)C(C(=O)NCCC(C)C)c1ccc(F)cc1 (configuration not stated),1,-0.07
O=c1nc(SCc2ccc(Cl)cc2)nc(-c2ccccc2)[nH]1,2,-0.09
CC(/C=N/NC(=O)c1ccccc1F)=C\c1ccccc1,0.19,0.78
Cc1nn(C)c(N)c1-c1ccccc1,0.47,0.83
CC(=O)Nc1ccccc1-c1nc2cc(C#N)c(C#N)cc2[nH]c1=O,0.59,-0.85
COc1cccc(CN(C)CC(=O)Nc2ccccc2C(=O)Nc2ccccc2)c1OC,0.34,-1.6
OCCC1CN(Cc2nc3ccccc3s2)CCN1C1CCCC1 (configuration not stated),0.86,-1.5
Cc1ccsc1CCNC(=O)C1CCC(=O)N(CCc2cccc(F)c2)C1 (configuration not stated),0.23,-0.8
COc1ccc(C(=O)N2CCN(c3ncccn3)CC2)cc1,0.02,-0.29
CCOCCCn1c(-c2ccc(Cl)cc2)n[nH]c1=S,0.05,-1.3
O=C(N/N=C/c1cc(Br)c(O)c(Br)c1)C1CC1,2.3,0.53
O=C(NCc1ccncc1)C(=O)Nc1ccc2c(c1)OCO2,0.34,0.05
CC(C)c1ccc2nc(SCC(=O)NCC3CCCO3)c(C#N)cc2c1 (configuration not stated),0.77,0.73
O=C(O)C1CC=CCC1C(=O)N1CCc2ccccc21 (configuration not stated),0.52,-1.4
O=[N+]([O-])c1ccccc1S(=O)(=O)Oc1ccccc1/C=N/n1cnnc1,0.13,0.59
CCCOc1ccccc1C1NC(=O)NC(C)=C1C(=O)OCCOC (configuration not stated),0.04,-0.24
Cc1cccc(-c2noc(CN(C)C(=O)c3ccc4c(c3)OCO4)n2)c1,0.62,1.2
O=C(CCN1C(=O)c2ccccc2C1=O)Nn1cnnc1,0.67,0.66
CN(C)S(=O)(=O)c1ccc(Cl)c(NC(=O)CSc2nnnn2-c2ccc(O)cc2)c1,2.2,0.13
CCOc1ccc(Br)cc1S(=O)(=O)Nc1cccnc1,0.38,0.03
CCCNS(=O)(=O)c1ccc(CCC(=O)Nc2ccc3c(c2)OCCO3)cc1,0.88,-0.76
COc1cc(OC)c(C(=O)NC2CC(C)(C)NC(C)(C)C2)cc1OC,0.94,-0.7
CC(=O)Oc1ccccc1C(=O)Nc1ccccc1C(=O)N1CCCCC1,1.1,2
CSc1cc(-c2ccccc2)n(Cc2ccc(Cl)cc2Cl)c(=O)c1C#N,1.5,-0.02
Cc1nn(-c2ccccc2)nc1C(=O)c1c(C)[nH]n(-c2ccccc2)c1=O,1.6,0.4
COc1ccc(CC(=O)NCC2CCCN(Cc3ccccc3Cl)C2)cc1 (configuration not stated),1.8,0.8
COc1ccc(CCNC(=O)Cn2c(=O)n(-c3ccc(F)cc3)c(=O)c3sccc32)cc1OC,1.4,-0.3
O=C(CO/N=C/c1ccccc1)N1c2ccccc2Oc2ccccc21,0.24,0.07
O=C(NCc1cccnc1)Nc1cccc([N+](=O)[O-])c1,0.05,-1.9
CC(=O)c1c(C)[nH]c(C(=O)Nc2ccc(Cl)c(S(=O)(=O)N3CCOCC3)c2)c1C,0.05,-0.52
CN(Cc1nc(Cc2cccc(F)c2)no1)CC1CCOCC1,0.05,1.2
# Next part.
SMILES,KCNQ2 pot,KCNQ2 pot baseline
CCC1CCCCN1CCCNC(=O)c1c(O)nc2c(C)cccn2c1=O (configuration not stated),2.9,0.06
Cc1oc2c(CN3CCCC3)c(O)ccc2c(=O)c1-c1ccc(Br)cc1,0.67,-0.17
Cn1c(CO)cnc1SCC(=O)c1ccc(Br)cc1,1.7,-1
CCOC(=O)c1cc2c(=O)n3ccccc3nc2n(Cc2ccccc2)c1=N,0.46,0.73
CN(Cc1ccon1)Cc1cn[nH]c1-c1ccc(-c2ccccc2)cc1,0.19,-1.2
CC1CCCCC1NC(=O)c1nnc(Cc2ccc(Cl)cc2)o1 (configuration not stated),0.63,-0.05
O=C(O)CCc1cc(I)c(Oc2ccc(O)c(I)c2)c(I)c1,32*,2.2*
CCn1c2ccccc2c2cc(NC(=O)Cc3ccc(S(=O)(=O)N4CCOCC4)s3)ccc21,3.6,-0.33
CCOC(=O)CSc1ccc(S(=O)(=O)N2CCC(C)CC2)cc1[N+](=O)[O-],0.02,0.37
COc1c(OC(C)=O)ccc(/C=C/c2ccc3cccc(OCc4ccccc4)c3n2)c1[N+](=O)[O-],0.35,0.77
O=C(C[n+]1cc(-c2ccc(Cl)c(Cl)c2)n2c1CCC2)c1cccs1,0.96,0.81
O=C(O)c1cc2n(n1)C(C(F)(F)F)CC(c1ccccc1)N2 (configuration not stated),1.7,-1.1
C=C1CN(CC(=O)OC)S(=O)(=O)c2ccccc21,2.1,-1.6
CCN(CC)c1ccc2c(cc1=O)[C@@H](NC)CCc1cc(OC)c(OC)c(OC)c1-2,0.13,-1.1
Cc1cc(C)c(C(=O)COC(=O)c2ccc(NC(=O)CC#N)cc2)cc1C,0.02,1.2
COC(=O)Nc1nc2ccc(Br)cc2s1,0.15,-1.9
CCOC(=O)C1(CCOc2ccccc2)CCN(Cc2cccs2)CC1,0.06,-0.55
COc1ccc(-n2c(Cc3cccn3C)nnc2SCC(=O)N2CCOCC2)cc1,1.3,-0.64
Cc1ccc(C(C)NC(=O)Cc2cccs2)c(C)c1 (configuration not stated),4.5,-2.5
NC(=O)c1c(/N=C/c2cccs2)sc2c1CCCC2,0.46,0.43
CCOc1ccc(NC(=O)CN(C)C(=O)Cn2c(=O)oc3ccccc32)cc1OCC,0.01,-0.6
CC(=O)N1CCN(c2ccc(NCc3ccc(F)cc3)cc2)CC1,0.9,0.6
COc1ccc(C(CNC(=O)C(C)Oc2ccc(Br)cc2)N2CCCC2)cc1 (configuration not stated),0.51,0.19
Cc1noc(C)c1S(=O)(=O)N(CC(=O)NCc1ccccc1)c1ccc(C(C)C)cc1,0.1,-1.7

# 5 compounds already listed, arranged by the number in KCNQ2 pot, descending:
SMILES,KCNQ2 pot,KCNQ2 pot baseline
Cc1ccc(C(C)NC(=O)Cc2cccs2)c(C)c1 (configuration not stated),4.5,-2.5
C=C1CN(CC(=O)OC)S(=O)(=O)c2ccccc21,2.1,-1.6
COc1ccc(-n2c(Cc3cccn3C)nnc2SCC(=O)N2CCOCC2)cc1,1.3,-0.64
CC(=O)N1CCN(c2ccc(NCc3ccc(F)cc3)cc2)CC1,0.9,0.6
CCN(CC)c1ccc2c(cc1=O)[C@@H](NC)CCc1cc(OC)c(OC)c(OC)c1-2,0.13,-1.1

# The list continues.
SMILES,KCNQ2 pot,KCNQ2 pot baseline
COc1ccc(CC(=O)NNC2=Nc3cccc4cccc2c34)cc1OC,0.51,-0.66
CC1(NC(=O)N2CCCCC2)CCS(=O)(=O)C1 (configuration not stated),1.3,-0.86
CCOC(=O)c1ccc(NC(=S)NCCCN2CCCC2=O)cc1,0.1,0.39
CC(=O)c1cc(Cl)ccc1OCc1cccc(S(=O)(=O)N2CCOCC2)c1,2.1,0.1
COc1ccccc1-n1c(CNC(=O)c2ccco2)n[nH]c1=S,0.16,-0.47
Cc1ccc(S(=O)(=O)N2CCN(C(=O)COC(=O)CSc3ccccc3)CC2)c(C)c1,0.02,-1.5
Cc1nn(C)cc1CNC(=O)c1ccc(F)cc1,0.07,-1.2
O=C(O)CCCC(=O)NCCc1ccncc1,0.06,1.8
Cc1ccc(S(=O)(=O)N2CCOCC2)cc1C(=O)N1CC(C)OC(C)C1 (configuration not stated),2.6,1.7
COc1c(Br)cc([N+](=O)[O-])c(OC)c1C(=O)NC(=O)Nc1nc(C)cc(C)n1,0.79,-0.57
CCNCC(=O)N1c2ccccc2CCc2ccc(NC(C)=O)cc21,0.51,-0.23
COc1ccc(-n2cnc3c(sc4nccc(N(C)C)c43)c2=O)cc1,0.16,-0.03
Cc1c(C(=O)N/N=C/c2ccoc2)cccc1[N+](=O)[O-],0.1,-2.4
Cc1ccc2c(c1)COc1c3ccc(C(=O)N[C@@H](CO)C(C)C)cc3nn1-2,2.2,-0.63
COc1ccc(N(C(=O)c2ccncc2)S(=O)(=O)c2ccc(OC)c(OC)c2)cc1,3.7,-1.2
CCCSc1nc(=O)n2cccc(C)c2n1,0.7,-0.67
O=C1/C(=C/c2ccccc2)Oc2cc(OC(=O)N3CCOCC3)ccc21,1.2,-0.53
CC(C)CC[n+]1ccn(C2=C([O-])c3ccccc3C(=O)/C2=N\S(=O)(=O)c2ccccc2)c1,0.04,-1.1
Cc1cc(C)n(C(=O)c2cccc([N+](=O)[O-])c2)n1,0.91,-1.3
Clc1cccc(CSC2=NCCCN2)c1,0.87,0.12
COc1cc(C#N)ccc1OCC(=O)NCc1cccs1,2.7,-1.9
COc1ccc(C(=O)N2CC(c3ccc(Cl)cc3)CC2=O)cc1 (configuration not stated),0.12,-0.48
O=C(C[n+]1ccccc1)N/N=C/c1c(F)cccc1Cl,0.01,0.79
COc1ccc(S(=O)(=O)N(C)CC(=O)N2CCOCC2)cc1Cl,1.7,2.4

# A section taken from the entries so far, for reference:
SMILES,KCNQ2 pot,KCNQ2 pot baseline
Cc1c(C(=O)N/N=C/c2ccoc2)cccc1[N+](=O)[O-],0.1,-2.4
Cc1ccc2c(c1)COc1c3ccc(C(=O)N[C@@H](CO)C(C)C)cc3nn1-2,2.2,-0.63
COc1ccc(N(C(=O)c2ccncc2)S(=O)(=O)c2ccc(OC)c(OC)c2)cc1,3.7,-1.2
CCCSc1nc(=O)n2cccc(C)c2n1,0.7,-0.67

# (further entries)
SMILES,KCNQ2 pot,KCNQ2 pot baseline
N#CC1=C(N)Oc2n[nH]c(-c3cccs3)c2C1C1CCCCC1 (configuration not stated),1.5,-0.01
O=C(CCc1ccccc1)Nc1cc2c3c(c1)CCC(=O)N3CCC2,0.59,0.86
COc1cc(/C=N/n2c(-c3cc(C)[nH]n3)n[nH]c2=S)cc(OC)c1O,1.3,-2.4
CCOC(=O)NNc1cc(C(F)(F)F)ccn1,0.55,0.03
N#C/C(=C(/O)c1ccc([N+](=O)[O-])s1)c1nc2ccccc2[nH]1,0.01,0.55
Cc1cc(C)n2nc(SCc3nc4ccccc4[nH]3)nc2n1,0.79,2.1
O=C(NCCN1CCOCC1)c1ccc2c(c1)ncn2C1CCCC1,0.24,-0.05
COc1ccccc1NC(=O)Nc1nc(CC(=O)NCc2ccc(F)cc2)cs1,0.46,0
O=[N+]([O-])c1cnc(Nc2ccc(Cl)cn2)c([N+](=O)[O-])c1,0.71,0.53
COCCCn1c(C(=O)NCCN2CCOCC2)cc2c(=O)n3ccccc3nc21,0.24,-0.94
